MbtI inh – MbtI salicylate synthase inhibitors, primary screen, biochemical, fluorescence intensity. P9WFX0. purified MbtI enzyme, fluorescence intensity read-out. inhibition, %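 (about 17 µg/mL by stock and volumes)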. hit rate 0.89% among 100,000;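 active = above 50% in both replicates, above 80% if mildly self-fluorescent; inactive = the rest, strongly fluorescent compounds included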;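 also: 0% = mean of negative and 100% = mean of positive controls; one replicate is shown; some compounds called inactive have numbers as strong as hits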
Target sequence (P9WFX0 whole entry, looked up): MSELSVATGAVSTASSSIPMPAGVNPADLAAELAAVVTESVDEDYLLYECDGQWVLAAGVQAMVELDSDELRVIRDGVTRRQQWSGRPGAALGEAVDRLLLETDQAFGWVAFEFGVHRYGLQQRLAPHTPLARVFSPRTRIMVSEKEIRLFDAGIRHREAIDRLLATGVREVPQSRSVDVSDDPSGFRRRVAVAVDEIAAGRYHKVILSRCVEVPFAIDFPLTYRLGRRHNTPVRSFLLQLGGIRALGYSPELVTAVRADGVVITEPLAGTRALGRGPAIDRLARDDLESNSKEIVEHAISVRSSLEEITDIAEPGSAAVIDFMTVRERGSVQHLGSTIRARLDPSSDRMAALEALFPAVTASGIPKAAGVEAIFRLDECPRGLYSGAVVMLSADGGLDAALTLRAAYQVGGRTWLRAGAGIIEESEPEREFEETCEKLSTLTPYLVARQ
PV pol inh – poliovirus RdRp elongation inhibitors, primary screen, biochemical, fluorescence polarization, total intensity. Genome polyprotein (Poliovirus type 1 (strain Mahoney)), P03300. poliovirus polymerase elongation; stronger effect = lower value. % elongation, % (compound at 16.7 µg/mL). hit rate 0.66% among 150,000. AID 588519, 2011; in the data active = % elongation below about 90%; also: some results filed as inactive read as strong as hits
Target sequence (P03300 1749-2209 limits assumed): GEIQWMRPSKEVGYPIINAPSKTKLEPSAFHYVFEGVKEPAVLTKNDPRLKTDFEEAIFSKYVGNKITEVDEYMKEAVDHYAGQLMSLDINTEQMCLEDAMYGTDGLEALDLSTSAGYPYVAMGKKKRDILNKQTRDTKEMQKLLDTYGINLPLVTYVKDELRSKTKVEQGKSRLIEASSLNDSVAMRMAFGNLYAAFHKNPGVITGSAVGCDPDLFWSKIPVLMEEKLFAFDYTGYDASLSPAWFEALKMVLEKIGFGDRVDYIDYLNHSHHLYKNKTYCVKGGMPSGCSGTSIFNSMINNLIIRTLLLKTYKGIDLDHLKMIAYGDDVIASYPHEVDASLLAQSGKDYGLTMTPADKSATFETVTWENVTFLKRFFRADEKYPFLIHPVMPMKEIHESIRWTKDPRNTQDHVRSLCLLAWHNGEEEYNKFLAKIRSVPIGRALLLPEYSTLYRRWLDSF
MenB inh – M. tuberculosis MenB inhibitors, primary screen, biochemical, absorbance | hit rate 0.43% among 100,000 | AID 540299, 2011 | MenB enzyme assay, absorbance read-out; some hits fall short of the stated cut | 1,4-dihydroxy-2-naphthoyl-CoA synthase (Mycobacterium tuberculosis (strain ATCC 25618 / … | inhibition, %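 (about 12 µg/mL by stock and volumes)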;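 active = mean of two replicates above 30%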;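 also: 0% = no compound and 100% = wells with inactive enzyme; the first replicate is given; strong numbers were not always called active; inactives centre near -10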
PV pol inh intensity – further read-out of PV pol inh, marked with its call; % elongation; measured here: total intensity read-out; formula for this scale not given here;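 total fluorescence in place of polarization; lower means less elongation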
Numbers without * were called inactive; i = inactive; x = not tested or not shown.

compound	MbtI inh	PV pol inh	PV pol inh intensity	MenB inh
O=C1Nc2ccccc2OC1CC(=O)N1CCN(Cc2ccc3c(c2)OCO3)CC1 (configuration not stated)	-0.8	102.0	103.0	8.6
CCn1nc(C)c(Br)c1-c1nc(-c2ccccc2)no1	-2.7	103.0	102.0	11.2
CNc1nnc(-c2ccccc2)s1	-178.2	103.0	99.0	-9.9
C=C(C)Cn1c(-c2ccccc2)nc2ccccc21	109.5	104.0	107.0	-6.8
Cc1ccc2nc(SC(C)C(=O)c3c(N)n(C)c(=O)n(C)c3=O)[nH]c2c1 (configuration not stated)	2.8	107.0	108.0	-4.2
Oc1cc2c(cc1C(c1ccc(C(F)(F)F)cc1)N1CCN(c3ccccc3)CC1)OCO2 (configuration not stated)	72.3	103.0	103.0	-40.6
C=C(C)CC1C=CCC(CC(=C)C)N1 (configuration not stated)	10.8	100.0	103.0	22.2
O=C(CSc1ncc(CO)n1Cc1ccc(Cl)cc1)Nc1ccc2c(c1)OCCO2	-27.3	99.0	103.0	-2.1
COc1cc(OC)nc(NCC(NC(=O)c2ccccc2)C(N)=O)n1 (configuration not stated)	-9.9	100.0	97.0	-13.4
Cc1cccc(NC(=O)c2cc3sccc3n2C)c1C	0.1	103.0	105.0	-20.1
CCOC(=O)c1c(NC(=O)c2ccn(CC)n2)sc2c1CCC2	i	103.0	109.0	-24.0
CS(=O)(=O)N(CC(N)=O)C1CCCCC1	-8.8	103.0	103.0	-3.8

Results in MenB inh (3 entries from above):
mol	MenB inh
CCn1nc(C)c(Br)c1-c1nc(-c2ccccc2)no1	11.2
CNc1nnc(-c2ccccc2)s1	-9.9
C=C(C)Cn1c(-c2ccccc2)nc2ccccc21	-6.8

Other records.
compound	MbtI inh	PV pol inh	PV pol inh intensity	MenB inh
CCC(=O)N1c2ccccc2NC2=C(C(=O)CC(c3ccccc3)C2)C1c1ccccc1 (configuration not stated)	-3.0	103.0	105.0	-21.1
Cc1cc(NC(=O)C2CC(=O)N(c3ccccc3C)C2)no1 (configuration not stated)	-4.2	104.0	102.0	-24.2
O=C(CN1C(=O)CCC1=O)NC(=S)Nc1cccc(-c2nc3ccccc3o2)c1	7.9	99.0	102.0	-12.6
Cc1ccc(OCC(=O)N(C)C)c(C)c1	5.0	99.0	91.0	-3.2
CC(Sc1nnc(C(C)NC(=O)c2ccccc2)n1C)C(=O)Nc1ccc2c(c1)OCO2 (configuration not stated)	0.1	104.0	105.0	3.3
Cc1cc(C)c2c(=O)[nH]n(C3CCCCC3)c2n1	-18.3	99.0	101.0	-3.9
CCN(CC(O)c1cccc(O)c1)C(=S)Nc1ccc(S(=O)(=O)N2CCOCC2)cc1 (configuration not stated)	-6.5	100.0	106.0	-21.8
CCC(=O)N/N=c1/sc2ccccc2n1C	-4.1	104.0	102.0	-12.4
CCCCCn1c(=NC(=O)c2ccncc2)c(C#N)cc2c(=O)n3ccccc3nc21	178.0	101.0	93.0	-18.6
C#CCSCc1nc2ccccc2[nH]1	20.0	104.0	106.0	-9.4
C=CCn1c(C)cc(C(=O)CSc2nnc(-c3ccccc3F)n2C)c1C	-14.4	103.0	108.0	-13.0
Cc1nn(-c2ccc(F)cc2)c(Cl)c1/C=C/C(=O)N1CCC(C(N)=O)CC1	-1.6	103.0	109.0	-17.3

Next part, overlapping the part above by two compounds.
compound	MbtI inh	PV pol inh	PV pol inh intensity	MenB inh
C=CCn1c(C)cc(C(=O)CSc2nnc(-c3ccccc3F)n2C)c1C	-14.4	103.0	108.0	-13.0
Cc1nn(-c2ccc(F)cc2)c(Cl)c1/C=C/C(=O)N1CCC(C(N)=O)CC1	-1.6	103.0	109.0	-17.3
COc1ccc(C(c2nnnn2C2CCCCC2)N2CCC(C)CC2)cc1OC (configuration not stated)	-17.2	100.0	102.0	27.5
C/C(=N\O)c1ccc2c(c1)OCCOCCOCCO2	x	102.0	104.0	-5.6
O=C(COC(=O)c1ccccc1C(=O)c1ccccc1)NCc1ccccc1	-5.8	99.0	95.0	x
O=C(C1CC(=O)N(c2ccc(OCc3ccccc3Cl)cc2)C1)N1CCOCC1 (configuration not stated)	x	97.0	98.0	-20.1
NC(=O)CSc1ccc(-c2ccccc2)nn1	8.1	102.0	107.0	-2.4
Cc1cccc(N2CCN(C(c3nnnn3C3CCCC3)C(C)C)CC2)c1C (configuration not stated)	-11.3	99.0	101.0	-21.6
CC(C)(C)c1sc(N)nc1-c1ccccc1	-2.6	102.0	108.0	x
CCOC(=O)/C=C(\C)N1N=C2c3ccc(OC)cc3CCC2C1c1ccc(OC)cc1 (configuration not stated)	32.6	104.0	111.0	-23.1
CC1(C)CC2CC(C)(CN2C(=O)c2ccccc2NC(=O)c2ccco2)C1 (configuration not stated)	x	106.0	101.0	-4.6
Cc1cc(C)nc(SC(C)C(=O)O)n1 (configuration not stated)	x	105.0	103.0	-15.9
CCCCC(=O)Nc1ccc(S(=O)(=O)NC(C)(C)C)cc1	8.1	98.0	101.0	-18.3
Cc1ccc(CSc2nc3ccncc3n2Cc2ccc(C(=O)O)cc2)cc1	-10.6	102.0	102.0	-4.0

compound	MbtI inh	PV pol inh	PV pol inh intensity	MenB inh
O=C1CC(=O)Nc2ccccc2N1	-6.0	100.0	102.0	-4.5
Cc1ccc(C(=O)Cn2c(C)csc2=Nc2ccccc2)cc1	7.2	96.0	82.0	-10.7
COc1ccc(C(=O)N2CCC3(CC2)OCCO3)cc1	-18.8	104.0	104.0	-17.2
CC1=C(C(=O)N2CCCCC2)C(c2ccc(Br)cc2)C2=C(CCCC2=O)N1 (configuration not stated)	x	105.0	111.0	-3.6
N#Cc1cn(CCOc2ccccc2F)c2ccccc12	-4.1	103.0	103.0	-34.8
O=C(Nc1cccc(-c2nn[nH]n2)c1)c1ccc(Br)o1	-3.5	103.0	102.0	-5.0
COc1ccc(NCC(C#N)C(=O)NCc2ccc(Cl)cc2)cc1 (configuration not stated)	x	102.0	98.0	-0.3
CCCNC(=O)c1ccc(N2CC3CC(C2)c2cccc(=O)n2C3)c(NC(=O)Nc2cccc(OC)c2)c1 (configuration not stated)	8.5	101.0	95.0	-49.9
Cc1cc(=O)cc(C)n1-c1ccc(F)cc1F	-11.9	103.0	101.0	x
Cc1ccc(S(=O)(=O)NC2c3cccc4cccc(c34)C2Sc2ccccn2)cc1 (configuration not stated)	9.0	101.0	102.0	-24.8
O=C(CCOc1ccccc1)Nc1nc2c(ccc3ccccc32)s1	4.2	101.0	101.0	-55.7
COc1ccc(CCN=C2CCc3ccccc3N2)cc1OC	-3.4	101.0	97.0	-6.3

compound	MbtI inh	PV pol inh	PV pol inh intensity	MenB inh
COCCNC(=O)c1ccccc1NC(=O)c1ccco1	-16.9	100.0	102.0	20.5
COc1ccc(-c2nc(S(=O)(=O)c3ccccc3)c(NCC3CCCO3)o2)cc1 (configuration not stated)	22.1	104.0	103.0	-38.2
CN(Cc1ccccc1)Cc1ccco1	11.1	100.0	103.0	-3.7
O=C(Sc1cccs1)c1csc(C2COc3ccccc3O2)n1 (configuration not stated)	31.1	102.0	101.0	-14.9
CCN(C(=O)Cn1cnc2c(nc3n2CCCCC3)c1=O)c1cccc(Cl)c1	-4.8	101.0	102.0	7.4
C1CCC(N2CCN(C3CCCC3)CC2)C1	-7.0	99.0	104.0	32.3*
CN1CCc2[nH]c3ccc(Cl)cc3c2C1	12.6	100.0	100.0	1.1
O=C(Nc1cccnc1)c1cccc(C(=O)Nc2cccnc2)c1	7.4	99.0	102.0	-40.1
CCN(CC)c1ccc2c3c(c(=O)oc2c1)C(c1cc2c(C)cc(C)cc2[nH]c1=O)C(C#N)=C(N)O3 (configuration not stated)	-319.5	106.0	111.0	-65.1
Cc1ccc(-n2nc3c(=O)n(CCCC(=O)N4CCCCC4)nc(C)c3c2C)cc1	-10.8	101.0	103.0	12.3
NC(=O)C1(N2CCCCC2)CCN(C(=O)C2CCCCC2)CC1	1.4	100.0	103.0	-31.3
O=C(OCc1nnc(-c2ccccc2)o1)c1cccc(S(=O)(=O)N2CCc3ccccc32)c1	-3.3	103.0	108.0	-32.0

compound	MbtI inh	PV pol inh	PV pol inh intensity	MenB inh
COc1ccc(Cl)cc1C(=O)CSc1nnnn1C1CCCCC1	-6.2	101.0	100.0	-24.0
CCOc1cc(/C=C2\C(O)C3CCN2CC3)cc(Cl)c1OCC (configuration not stated)	-75.7	99.0	99.0	-17.4
CC(=O)Nc1ccc(NC(=O)CN(C)S(=O)(=O)c2ccc(F)cc2)cc1	x	103.0	95.0	-19.7
N#C/C=C1\SCC(=O)N1CC(O)c1ccc(Cl)cc1 (configuration not stated)	0.0	106.0	110.0	-8.1
CC1=C(C(N)=O)C(c2ccccc2)n2ncnc2N1 (configuration not stated)	9.6	101.0	101.0	-27.3
O=C(NCCCN1CCCC1=O)c1sc2ccccc2c1Cl	-6.2	103.0	100.0	x
COC(=O)c1cc(=O)c2c(SC)nc(-c3ccccc3)nc2[nH]1	x	103.0	111.0	-7.3
COC(=O)C(CC(C)C)NC(=O)c1ccco1 (configuration not stated)	x	105.0	99.0	-2.0
COc1ccc(S(=O)(=O)N2Cc3ccccc3CC2C(=O)NCc2ccc3c(c2)OCO3)cc1 (configuration not stated)	-21.1	100.0	103.0	-15.6
Cn1c(CNC(=O)c2ccccc2F)nnc1SCC(=O)Nc1nnc(C2CCCCC2)s1	-3.9	100.0	102.0	-21.1
COc1ccc(CCNC(=O)CCn2c(=O)c3cccn3c3cccnc32)c(OC)c1	61.2	102.0	101.0	-7.8
CN(CCNC(=O)c1nc(-c2cccnc2)no1)C1CCCCC1	-11.9	101.0	103.0	11.0

Overlap with the part before: 3 entries, then new ones.
compound	MbtI inh	PV pol inh	PV pol inh intensity	MenB inh
Cn1c(CNC(=O)c2ccccc2F)nnc1SCC(=O)Nc1nnc(C2CCCCC2)s1	-3.9	100.0	102.0	-21.1
COc1ccc(CCNC(=O)CCn2c(=O)c3cccn3c3cccnc32)c(OC)c1	61.2	102.0	101.0	-7.8
CN(CCNC(=O)c1nc(-c2cccnc2)no1)C1CCCCC1	-11.9	101.0	103.0	11.0
NC(=O)c1cnc2n(c1=O)CCS2	15.4	105.0	119.0	-16.6
CCc1ccc2c(CN3CCc4ccccc43)cc(=O)oc2c1	-26.7	104.0	108.0	-23.4
CCCCn1c(SCc2nc(-c3ccccc3Cl)no2)nc2ccccc2c1=O	-5.8	103.0	97.0	-12.7
C=CCn1c(N)c(C(=O)Nc2ccc(C)cc2)c2nc3ccccc3nc21	-3.0	100.0	99.0	x
CC12CNCC(C)(CN(C(=O)CCC(=O)O)C1)C2=O	-12.6	102.0	103.0	1.2
NC(=O)CN(Cc1ccccc1F)S(=O)(=O)c1ccc(Cl)cc1	x	109.0	110.0	-21.9
COc1ccc2oc(C(=O)OCC(=O)Nc3cccnc3Cl)c(C)c2c1	10.3	x	x	-15.5
CC1CCCN(C(=O)COC(=O)Cc2n[nH]c(=O)c3ccccc23)C1 (configuration not stated)	-7.6	98.0	94.0	-6.2
Nc1c(C(=O)c2ccccc2O)cnn1C(=S)NC1CCCCC1	6.5	100.0	102.0	-35.2
CCOC(=O)c1cc(-c2ccc(Cl)cc2)oc1/C=N/OC(=O)c1ccco1	58.5	102.0	105.0	-7.8
CC1CCCC(C)N1C(=O)COC(=O)/C=C/c1ccc(Br)o1 (configuration not stated)	10.4	111.0	104.0	12.0
O=C(Nn1ncc2ccccc21)c1ccccc1	-10.9	102.0	104.0	x
Nc1nc2ccc(S(=O)(=O)c3ccccc3)cc2[nH]1	-62.9	100.0	101.0	-11.2
CCN(Cc1cc(OC)c(OC)c(OC)c1)C(=S)Nc1cccc(SC)c1	0.7	107.0	107.0	-15.2
O=C1c2cccc3c(N4CCOCC4)ccc(c23)C(=O)N1c1ccccc1	-11.4	95.0	172.0	-40.7
